Assay outcomes as filed in PubChem.
D2 potentiator: human D2 receptor positive allosteric modulation | 0.23% of 360,000 active | potentiation, % (no concentration beside the values) | AID 624464 | DiscoveRx D2 beta-arrestin cells, luminescence, 90 min; 100% = 57 uM dopamine signal | P14416; active = potentiation of 50% or more; inconclusive = 30% to 50%; inactive = 30% or less;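 also: compound concentration not given in the record; tested on top of an EC20 dose of dopamine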
Target sequence (P14416 whole entry, looked up): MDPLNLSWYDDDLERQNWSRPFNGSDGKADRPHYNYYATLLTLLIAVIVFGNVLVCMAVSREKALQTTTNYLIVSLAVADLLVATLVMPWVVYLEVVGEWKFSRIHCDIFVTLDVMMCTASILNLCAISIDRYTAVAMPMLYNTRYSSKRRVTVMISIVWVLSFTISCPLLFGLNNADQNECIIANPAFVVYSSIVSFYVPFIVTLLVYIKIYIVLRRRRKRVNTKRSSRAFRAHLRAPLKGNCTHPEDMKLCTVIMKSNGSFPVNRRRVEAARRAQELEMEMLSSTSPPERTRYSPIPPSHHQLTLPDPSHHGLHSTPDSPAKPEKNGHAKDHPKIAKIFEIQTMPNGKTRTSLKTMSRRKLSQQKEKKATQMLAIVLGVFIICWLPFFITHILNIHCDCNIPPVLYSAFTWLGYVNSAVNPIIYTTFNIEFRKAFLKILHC
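D2 cells co-treated with compound plus 50 nM dopamine (EC20) for 90 min at 37 deg C to detect potentiation. Beta-arrestin recruitment was read as enzyme-fragment luminescence after 1 h at ambient temperature. Full response was set by 57 uM dopamine.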
TRPML1 agonist: human mucolipin-1 channel agonism. Q9GZU1. TRPML1-expressing cells, Ca2+ dye fluorescence, FDSS; host cell line not named in the record; reference of the full effect not given here. activation, % (no concentration beside the values). 0.12% of 410,000 active. AID 624414; in the data active = activation above about 50%; inconclusive = about 30% to 50%; inactive = below about 30%; also: 0% is about no effect; the text of the record puts the active cut at 80%
Target sequence (Q9GZU1 whole entry, looked up): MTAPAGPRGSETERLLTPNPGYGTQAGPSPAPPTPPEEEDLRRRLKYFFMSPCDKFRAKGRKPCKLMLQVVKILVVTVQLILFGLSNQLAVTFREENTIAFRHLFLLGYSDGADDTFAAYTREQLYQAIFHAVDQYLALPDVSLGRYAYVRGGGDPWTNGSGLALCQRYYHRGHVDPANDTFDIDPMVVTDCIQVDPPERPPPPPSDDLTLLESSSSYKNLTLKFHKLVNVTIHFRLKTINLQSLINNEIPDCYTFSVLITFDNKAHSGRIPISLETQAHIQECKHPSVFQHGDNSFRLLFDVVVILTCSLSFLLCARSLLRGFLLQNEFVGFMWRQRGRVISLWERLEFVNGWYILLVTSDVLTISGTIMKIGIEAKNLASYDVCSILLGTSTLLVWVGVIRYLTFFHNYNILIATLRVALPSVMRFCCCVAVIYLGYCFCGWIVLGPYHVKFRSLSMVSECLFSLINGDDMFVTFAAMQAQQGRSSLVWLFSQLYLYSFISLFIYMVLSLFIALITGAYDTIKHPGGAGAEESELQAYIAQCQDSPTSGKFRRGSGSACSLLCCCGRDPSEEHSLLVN
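Calcium fluorescence on an FDSS kinetic reader gave the read-out. Tet-induced TRPML1-DL cells were plated overnight, dye-loaded (Ca8 with quencher, 45-90 min, room temperature, dark), then read 110 s after compound addition, and again 110 s after 4uM final 54-4 (EC80).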
D2 agonist: agonists of human D2 dopamine receptor (beta-arrestin); P14416; DiscoveRx PathHunter D2 beta-arrestin, luminescence, 90 min; 100% = 57 uM dopamine signal; activation, % (no concentration beside the values); 0.084% of 360,000 active; AID 624465; in the data active = activation above about 40%; inconclusive = about 15% to 40%; inactive = below about 15%; also: compound concentration not given in the record; the text of the record calls up to 30% inactive
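DiscoveRx PathHunter D2 beta-arrestin cells (2,100/well) attached overnight, then compound-stimulated 90 min at 37 C in HBSS/10 mM HEPES/0.1% Tween-20 buffer; beta-galactosidase complementation read by luminescence after 1 h at ambient temperature. Dopamine 57 uM final (EC100) as control.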
TRPML1 inh: human mucolipin-1 channel inhibition. TRPML1-inducible cells, Ca2+ dye fluorescence, FDSS; stronger effect = lower value; inhibition of EC80 agonist-evoked calcium signal. 0.02% of 390,000 active. Q9GZU1. activity change, negative = inhibition, % (no concentration beside the values); in the data active means activity change below about -50%; inconclusive means about -30% to -50%; inactive means above about -30%;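 also: stimulus is agonist 54-4 at its EC80 concentration; % is scaled to controls: 0 for no effect and ±100 for the full control effect; compound concentration not given in the record; the text of the record puts the active cut at -80%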
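Calcium fluorescence in TRPML1-DL cells induced overnight with Tet: a 110 s read after compound pin addition, then a 110 s antagonist read after challenge with 54-4 at 4 uM final (EC80).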
PINK1 expr mod: PINK1 expression modulation | AID 624263 | Potency, µM (doses to about 76.6 µM), without a hit: top-dose activation (PINK1 increase), hits mostly activators | 0.2% of 410,000 active | PINK1 immunofluorescence, high-content cytometry, 24 h; active = well fitted activation curve with a large enough effect; inconclusive = small, poorly fitted or top-dose-only effect; inactive = flat fitted curve, though single readings scatter; cell line not stated here;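 also: potency is read from the fitted curve at half-maximal effect; % of control where 0% means no effect; nearly all actives have a fitted effect of over 65% in size; a mitochondrial uncoupler was the plate control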
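Stable cell line, 250 cells/well, 12 h attachment; compounds pinned at 5 concentrations, 24 h; CCCP control. Fixed with nuclear dye, primary antibodies 12 h at 10 degrees C, secondary plus cell stain; laser-scanning cytometer read.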
Six1-Eya2 blk: inhibitors of human Six1/Eya2 interaction | Q15475+O00167 | AlphaScreen GST-Six1/His-Eya2 binding, biochemical; stronger effect = lower value; control for the full effect not named in the record | activity change, % (concentration not given with the values) | 0.56% of 360,000 active | AID 651725; in the data active = activity change below about -65%; inconclusive = about -30% to -65%; inactive = above about -30%; also: % is scaled to controls: 0 for no effect and ±100 for the full control effect
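Six1/Eya2 binding was read as AlphaScreen signal after compounds were pinned into GST-Six1 plus His-tagged Eya2 (5X stock 250/500 nM) in pH 8.0 Tris/NaCl/TCEP buffer, beads added, then incubated 1 h, 37 C, dark.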
* = called active by the depositor; ? = inconclusive; . = not tested or not shown; & = joins results of further samples; [ ] = dose if it differs, or a comment.

SMILES | D2 potentiator | TRPML1 agonist | D2 agonist | TRPML1 inh | PINK1 expr mod | Six1-Eya2 blk
Cc1ccc2nc(SCC(=O)NCc3ccco3)c(C)cc2c1 | -7 | 2.1 | -1.7 | 37 | -0.2% | -3
CC(C)Cc1nc2sc3c(=O)[nH]cnc3c2c2c1CCC2 | -12 | 0.0 | -3.1 | 48 | 1.3% | 10
CC1=C2C3OC(=O)C(C)C3CCC2(C)C=CC1=NO (configuration not stated) | 2 | -0.5 | -1.8 | -4 | -1.7% | 3
Cn1cccc1Cc1nnc(SCC(=O)NCCc2ccccc2)n1C | -2 | 0.2 | -1.8 | 24 | 2.5% | -1
COc1ccc(C)cc1NC(=O)c1oc2ccc(S(=O)(=O)N(C)C3CCCCC3)cc2c1C | . | -0.2 | . | 7 | 0.8% | .
CC(=O)c1cnc2c(-c3ccccc3)cnn2c1C | 5 | -0.7 | -0.9 | -13 | -6.7% | 3
COc1ccccc1N1CCN(c2ccc3c(c2)S(=O)(=O)c2cccc(C(=O)NCC4CC4)c2C3=O)CC1 | -1 | 0.0 | 1.8 | 0 | 2.1% | -19
CCCCCc1c(C)nc(N2CCOCC2)[nH]c1=O | 0 | 0.0 | -0.2 | 11 | 2.8%[38.3 µM] | 2
CCCS(=O)c1nc(C)cc(C)c1S(C)(=O)=O (configuration not stated) | -3 | 0.3 | 5.5 | -9 | 0.7% | 3
CC(=O)Nc1ccc(-c2ccnc3c2CC(C(=O)Nc2ccccc2)O3)cc1 (configuration not stated) | 3 | -1.0 | 6.2 | . | 6.2% | -10
Cn1c(=O)c2c(nc(Oc3ccc(F)cc3)n2Cc2ccc(F)cc2)n(C)c1=O | . | 1.3 | . | 0 | -0.3% | .
CCNC(=O)NC(=O)COC(=O)CCCSc1nc2ccccc2[nH]1 | -15 | 1.4 | -0.3 | -6 | 1.3% | 11
O=C(CSc1nnc(C2COc3ccccc3O2)o1)N1CCCC1 (configuration not stated) | 0 | -0.7 | 1.9 | 3 | -2.3% | 2
CCOc1ccc(CCNC(=O)c2cc3sccc3n2CC)cc1OCC | 3 | 1.3&1.3 | -1.6 | 10&11 | -0.6%&-1.5% | -22
COc1ccc(-c2cc(Nc3ccccc3NC(=O)C(F)(F)F)n(CCC#N)n2)cc1 | 18 | 1.8 | 4.4 | 8 | -0.6% | 1
COc1cc(C(=O)Nc2cccc(C)n2)ccc1OCC(=O)N1CCOCC1 | -2 | 1.5 | 1.0 | 9 | 0.3% | 1
COc1cc(/C=N/N=C2/NC(=O)C(c3ccccc3)S2)ccc1O (configuration not stated) | 11 | -0.6 | 0.6 | -8 | 0.7% | -12
CCc1ncc(CO)n1Cc1cccc2ccccc12 | -7 | 0.3 | -3.1 | 17 | 1.9% | 5
CCOCCCNC(=O)c1cn(CC)c2ccc(S(=O)(=O)N3CCC(C)CC3)cc2c1=O | -2 | -0.6 | -1.4 | -4 | 0.7% | 0
CN1CCN(CCC(=O)N/N=C/c2cc([N+](=O)[O-])ccc2OC(F)F)CC1 | -12 | 0.0 | 1.9 | 33 | 4.9% | -7
COc1ccc(CC(=O)NC2=NCCS2)cc1 | -9 | 0.6 | -2.3 | 12 | -0.3% | -2
CCN1CCCC1CNC(=O)c1ccc(Sc2ccccc2Cl)c([N+](=O)[O-])c1 (configuration not stated) | -9 | 0.0 | -1.0 | -1 | 0.7% | 7
COC(=O)c1cc(C(=O)c2cc(Cl)ccc2O)coc1=N | -16 | -1.3 | -0.2 | -7 | 1.5% | 0
CCn1c(C)cc2c(c1=O)C(c1ccc3c(c1)OCO3)C(C#N)=C(N)O2 (configuration not stated) | 1 | 1.3 | -0.1 | 8 | ? | -6
O=C(CC12CC3CC(CC(C3)C1)C2)NCO | 6 | 0.2 | 0.6 | 11 | 1.1% | 16

Record cards, from the list above:
CCCCCc1c(C)nc(N2CCOCC2)[nH]c1=O as listed: D2 potentiator = 0; TRPML1 agonist = 0.0; D2 agonist = -0.2; TRPML1 inh = 11; PINK1 expr mod = 2.8%[38.3 µM]; Six1-Eya2 blk = 2
COc1cc(/C=N/N=C2/NC(=O)C(c3ccccc3)S2)ccc1O (configuration not stated) as listed: D2 potentiator = 11; TRPML1 agonist = -0.6; D2 agonist = 0.6; TRPML1 inh = -8; PINK1 expr mod = 0.7%; Six1-Eya2 blk = -12
O=C(CC12CC3CC(CC(C3)C1)C2)NCO as listed: D2 potentiator = 6; TRPML1 agonist = 0.2; D2 agonist = 0.6; TRPML1 inh = 11; PINK1 expr mod = 1.1%; Six1-Eya2 blk = 16

The main list resumes; the two compounds before the break are reprinted first.
SMILES | D2 potentiator | TRPML1 agonist | D2 agonist | TRPML1 inh | PINK1 expr mod | Six1-Eya2 blk
CCn1c(C)cc2c(c1=O)C(c1ccc3c(c1)OCO3)C(C#N)=C(N)O2 (configuration not stated) | 1 | 1.3 | -0.1 | 8 | ? | -6
O=C(CC12CC3CC(CC(C3)C1)C2)NCO | 6 | 0.2 | 0.6 | 11 | 1.1% | 16
CC(=O)NNC(=O)c1ccncc1 | -4 | -0.1 | -4.5 | -4 | 9.3%[38.3 µM] | 25
CC(C)c1ccc(S(=O)(=O)Nc2ccc3oc4c(c3c2)C(=O)CC(C)(C)C4)cc1 | . | 2.0 | . | 12 | -0.9% | .
CC(c1ccco1)N(C(=O)c1ccc(C(F)(F)F)cc1)c1ccccn1 (configuration not stated) | -14 | -1.2 | 5.8 | 10 | -0.8% | 4
Cc1ccc(NC(=O)c2ccco2)c(NC(=O)CN2C(=O)c3ccccc3C2=O)c1 | 4 | 1.1 | -2.5 | 4 | -2.0% | -8
CCOCCCNC(=O)c1ccc(C2SCC(=O)N2Cc2ccccc2)cc1 (configuration not stated) | -4 | -0.6 | 3.3 | -10 | 0.3% | 8
COc1c(Br)cc2c(C)c(C(=O)O)oc2c1Br | -11 | 0.3 | -3.5 | 11 | -0.8% | ?
O=C(O)COc1ccccc1C=NNC(=O)c1ccccc1NS(=O)(=O)c1cccs1 | -2 | 0.0 | -1.3 | -1 | 1.6% | -19
NC(=O)c1cc2c3ccccc3ccn2c1-c1ccccc1 | -9 | 1.4 | ? | -4 | -1.2% | -28
CCc1ccc(NC(=O)COc2coc(CN3CCc4ccccc4C3)cc2=O)cc1 | 0 | 1.2 | 7.0 | -7 | 1.2% | -4
Cc1cccc(N(C(=O)CNC(=O)c2cccs2)C(C(=O)NC2CCCC2)c2ccncc2)c1 (configuration not stated) | -5 | 0.0 | -2.0 | -2 | 0.7% | -4
C#CCN(C[C@H]1[C@H](OC(=O)NCCCCCC)[C@H](OC(=O)NCCCCCC)C[C@@H](C(=O)OC)[C@H]1C(=O)OC)S(=O)(=O)c1ccc(C)cc1 | -3 | 1.3 | -9.1 | -14 | 2.9% | -1
Cc1ccc(S(=O)(=O)N2CCCCC2)c2nsnc12 | -4 | -0.6 | 3.8 | -1 | 2.3% | 3
CCn1c(=O)c2sccc2n2c(CCCC(=O)Nc3ccc(C)cc3)nnc12 | . | -0.7 | . | 8 | 1.1% | .
CC(C)NC(=O)NNC(=O)c1cc(COc2cc(Cl)cc(Cl)c2)on1 | -3 | 0.0 | -0.1 | -13 | 0.1% | 3
O=C(NNS(=O)(=O)c1ccc(Cl)cc1)NC1CCCCC1 | -24 | -0.5 | -2.1 | -6 | 1.4% | -5
C/C=C1\COC(C(=O)NCc2ccncc2)(C(F)(F)F)C=C1C=C1CCCCC1 (configuration not stated) | -47 | 1.9&2.5 | 0.9 | 8&-11 | 2.0% | 3
Cc1noc(NS(=O)(=O)c2ccc(NC(=O)CSc3nc4ccccc4s3)cc2)c1C | 5 | -0.8 | 2.7 | 8 | 2.3%[38.3 µM] | -10
Cc1ccc(N(Cc2cccs2)C(=O)c2ccccc2Cl)cc1 | . | -0.2 | . | -2 | -0.2% | .
CC(C)(O)C1Cc2cc(/C=C/C(=O)O)c(O)cc2O1 (configuration not stated) | -2 | -0.3 | -2.6 | 6 | -1.2% | 5
O=C(CCCl)N1c2ccccc2C=Cc2ccccc21 | -14 | 1.6 | -2.6 | -9 | -1.7% | 14
COc1ccccc1N1CCN(C(=O)[C@H](C)NS(=O)(=O)c2ccc3c(c2)OCCCO3)CC1 | -4 | -0.5 | 4.8 | -1 | 3.2% | -1
NC(=O)C1CCN(Cc2nc3cc(Cl)ccc3c(=O)[nH]2)CC1 | 12 | -0.1 | -5.2 | 2 | -1.9% | -1
CCCC(=O)N1CCCC(C(=O)c2ccc(OC)c(OC)c2)C1 (configuration not stated) | 4 | 0.3 | 8.6 | -10 | 1.2% | 6
O=[N+]([O-])c1cccc(/C=N/NC2CCS(=O)(=O)C2)c1 (configuration not stated) | -7 | 0.4 | 0.4 | 23 | 0.6% | 0
CCn1c(=O)cc(OCC(=O)NCC2CCCO2)c2ccccc21 (configuration not stated) | 0 | 2.2 | -1.2 | 0 | -0.4% | 1
(next part)
SMILES | D2 potentiator | TRPML1 agonist | D2 agonist | TRPML1 inh | PINK1 expr mod | Six1-Eya2 blk
CCS(=O)(=O)N1CCN(S(=O)(=O)c2ccccc2[N+](=O)[O-])CC1 | -2 | -0.3 | -2.8 | 7 | 0.2% | -5
CCOc1ccc(NC(=O)c2cc(SC)ccc2Cl)cc1 | -9 | 0.6 | 1.4 | -1 | 2.2% | 4
CN1CCN(C(=S)c2ccc(-c3cc(Cl)ccc3Cl)o2)CC1 | -14 | 1.6 | -3.8 | 68 | 0.7% | -11
Cc1ccc(C)c2[nH]c(=O)c(CN(CC3CCCO3)C(=O)NC3CCCCC3)cc12 (configuration not stated) | -2 | -0.6 | -2.5 | -8 | 25%[38.3 µM] | -12
N#Cc1sc2nc3c(c(-c4ccco4)c2c1N)CCCC3 | ? | 0.5 | 0.6 | -4 | -0.6% | 27
O=C(NCCc1nc2ccccc2n1Cc1ccc(F)cc1)c1ccco1 | . | 0.5 | . | 2 | 2.1% | .
Cc1c(C(C)(C)O)[nH]c2ccc(C#N)cc12 | -2 | 0.0 | -2.5 | 4 | 0.5% | -2
CC(N)C(=O)NC(C(=O)NC(C)C(=O)Nc1cccc2ccccc12)C(C)C (configuration not stated) | 17 | -0.4 | 8.1 | 1 | 0.9% | -7
C/C(=N\NC(=O)c1c([N+](=O)[O-])c(C)nn1C)c1ccc(NC(=O)c2ccc(C)o2)cc1 | -11 | 0.1 | 1.0 | 17 | 0.9% | 10
Cc1ccc(NCC(=O)N/N=C\C(Br)=C\c2ccccc2)cc1 | -21 | -0.3 | -1.7 | -16 | . | -3
O=C(NCCc1ccc(Cl)cc1)C1(c2ccccc2)CC1 | -2 | 0.5 | 0.2 | -8 | 0.2% | 6
COC(=O)c1cc(C(=O)OCC(=O)N2c3ccccc3NC(=O)C2(C)C)cc([N+](=O)[O-])c1 | 15 | 1.7 | 1.9 | -15 | 6.9% | -3
